NPYLR7 ag = agonists of mosquito NPYLR7 receptor, primary screen, cell-based, Aedes aegypti, calcium fluorescence, mosquito biting behavior. Aedes aegypti neuropeptide Y-like receptor 7 (NPYLR7). HEK293T NPYLR7/Galpha15, GCaMP6s calcium fluorescence. activation, % at 10 µM. hit rate 0.15% among 270,000. AID 1259423, 2018; in the data active = activation above about 40%;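 note: 0% = vehicle and 100% = reference agonist at the receptor; some compounds past the cut are filed as inactive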
NPYLR7 ag max-min = recorded beside NPYLR7 ag, whose call it bears; activation, %; measured here: Max-Min RFU normalised activation; some inactives read as strong as hits;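 span of the calcium signal over five minutes; 0% = vehicle and 100% = native peptide agonist; compound fluorescence can raise it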
Numbers without * were called inactive; & = joins results of further samples. An excerpt (hit frequency here may not be typical).

Compound,NPYLR7 ag,NPYLR7 ag max-min
CN(Cc1nccs1)C(=O)C1CCCN(c2nc(-c3ccccc3)nc3c2CCC3)C1 (stereo unspecified),-7,-9
COCCCN(CC(=O)N(CCc1ccc(OC)c(OC)c1)Cc1ccco1)C(=O)c1cccc(OC)c1,-5,-4
O=C(NC1CCC(NC(=O)[C@H]2CCCN2C(=O)C2CC2)CC1)c1ccccc1 (stereo partly specified),2,12
CCCCCCCC(=O)N1CCc2nc(C)nc(N3CCCCC3)c2C1,-7,-2
CCCCC1CCCN1c1cc(C2CCNCC2)ncn1 (stereo unspecified),8,17
Cc1cccc(-n2nc(C(=O)N(C)C3CCCCC3)c(=O)n(Cc3ccc(C(F)(F)F)cc3)c2=O)c1,15,10
CN(Cc1cc(-c2ccccc2)no1)C(=O)C1CCC(=O)N(CCN2CCOCC2)C1 (stereo unspecified),6&-1,1&-3
CC1=NNc2nc3c(c(=O)n(Cc4ccc(Cl)c(Cl)c4)c(=O)n3C)n2C1C (stereo unspecified),-4,-5

The last 4 compounds of the part before are carried over, then new ones follow:
Compound,NPYLR7 ag,NPYLR7 ag max-min
CCCCC1CCCN1c1cc(C2CCNCC2)ncn1 (stereo unspecified),8,17
Cc1cccc(-n2nc(C(=O)N(C)C3CCCCC3)c(=O)n(Cc3ccc(C(F)(F)F)cc3)c2=O)c1,15,10
CN(Cc1cc(-c2ccccc2)no1)C(=O)C1CCC(=O)N(CCN2CCOCC2)C1 (stereo unspecified),6&-1,1&-3
CC1=NNc2nc3c(c(=O)n(Cc4ccc(Cl)c(Cl)c4)c(=O)n3C)n2C1C (stereo unspecified),-4,-5
N#Cc1ccc(C23CC4CC(CC(C4)C2)C3)nc1SCC(=O)Nc1nc2ccccc2s1,-10,-14
COCCC1CN(C(=O)COc2c(C)ccc(C)c2C)CCO1 (stereo unspecified),6,8
COCc1nc(CN2CCC(N3CCCC3=O)CC2)no1,1,0
O=C(c1cc2cc([N+](=O)[O-])ccc2oc1=O)N1CCN(CC=Cc2ccccc2)CC1,-4,-6
COc1cccc(-c2nc3c(Nc4cccc(O)c4)nccc3[nH]2)c1F,-4,-11
CCC(C)NS(=O)(=O)c1ccc(I)cc1 (stereo unspecified),1,4
Cn1cc(C2CC2C(=O)NC2CCCCC2Cc2ccccc2)cn1 (stereo unspecified),2,2
Cc1csc(-n2c(C)cc(-c3csc(CC(=O)N(C)C)n3)c2C)n1,1,-1

Single records, as listed above. Values in the order: NPYLR7 ag	NPYLR7 ag max-min
Cc1csc(-n2c(C)cc(-c3csc(CC(=O)N(C)C)n3)c2C)n1 across the screens: 1	-1
Cn1cc(C2CC2C(=O)NC2CCCCC2Cc2ccccc2)cn1 (stereo unspecified) across the screens: 2	2
COCc1nc(CN2CCC(N3CCCC3=O)CC2)no1 across the screens: 1	0
CCC(C)NS(=O)(=O)c1ccc(I)cc1 (stereo unspecified) across the screens: 1	4
COCCC1CN(C(=O)COc2c(C)ccc(C)c2C)CCO1 (stereo unspecified) across the screens: 6	8

Continued.
Compound,NPYLR7 ag,NPYLR7 ag max-min
Cc1ccc2[nH]cc(CN3CCCC(OCc4cccnc4)C3)c2c1 (stereo unspecified),-3,-5
CC(C)n1cc(C(=O)N(CC2CCN(Cc3ccccc3F)CC2)CC2CCCO2)cn1 (stereo unspecified),7,6
NC(=O)C1Cc2ccccc2CN1Cc1ccccc1C(F)(F)F (stereo unspecified),4,1
Cc1cc(NC(=O)CSc2nc(C)c(C)n2C2CCCCC2)no1,1,4
CC1=C(C(=O)OC(C)C)C(c2ccc(C)s2)NC(=O)N1C (stereo unspecified),-8,-13
CCCCC(=O)OCC(=O)Nc1ccc(OC)cc1[N+](=O)[O-],-2,-3
O=C(Nc1nc(CC(=O)N2CCn3c2nc2ccccc23)cs1)c1ccc(=O)[nH]c1,1,-2
COc1ccc(C)cc1C(C)NC(=O)N1CCC1c1ccccc1 (stereo unspecified),2,-1
CCNC(=O)NC(=O)C(C)OC(=O)Cn1cnc2c1c(=O)n(C)c(=O)n2C (stereo unspecified),0,-2
CC(=O)c1cc(CN2CCN(Cc3ccc(C)o3)C(CCO)C2)cs1 (stereo unspecified),12,13
C=CCN1C(=O)C(=Cc2ccc(OC)cc2OC)SC1=S,24,16
CC1(C(=O)NCc2ccc(Cl)cc2)CCN1C(=O)CC(c1ccccc1)c1ccccc1 (stereo unspecified),-5,-2
O=C(Nc1ccc(C(=O)N2CCC(O)CC2)cc1)OC(CCN1CCOCC1)c1cccs1 (stereo unspecified),1,-2
COc1ccc(-c2nc3nc(-c4cc(OC)ccc4OC)cc(C(=O)O)c3[nH]2)cc1,-1,-1
COc1ccc(C(=O)Nc2nc3c(s2)C[C@@H]2[C@](C)(CO)[C@H](O)CC[C@@]2(C)[C@@H]3CC(=O)NCc2cccs2)cc1,-9,-12
O=C(Nc1ccccc1)c1cn(CC2CCCO2)cc2c(=O)n(-c3ccccc3)nc1-2 (stereo unspecified),5,3
COc1ccc(N2C(=O)c3ccccc3NC2c2ccc(Br)cc2)cc1 (stereo unspecified),-7,-13
Nc1ncc(Br)cc1S(=O)(=O)NCc1ccco1,3,3
COC[C@H]1C[C@H]2C[C@@H](O)[C@H](N3CCC(Cc4ccccc4)CC3)[C@]2(O)CO1,4,8
Brc1ccc(C2(CNCc3cc[nH]c3)CCOCC2)cc1,2,13
Cc1nc(SCC(=O)N2CCN(S(=O)(=O)c3ccc(C)c(C)c3)CC2)n[nH]1,5,2
CC1=NC2=C(C(=O)CCC2)C(c2ccc3c(c2)OCO3)C1C(=O)OCCOc1ccccc1 (stereo unspecified),-4,-6
CC(=O)N[C@H]1C[C@@H](c2ccc3c(c2)nnn3C)O[C@@H](c2ccc(Cl)cc2)C1,6,5
CC(=O)N1CCC[C@H]1C(=O)NCCCc1nc2ccccc2s1,7,8

As a short view, part of the list above.
Compound,NPYLR7 ag,NPYLR7 ag max-min
COc1ccc(N2C(=O)c3ccccc3NC2c2ccc(Br)cc2)cc1 (stereo unspecified),-7,-13
Nc1ncc(Br)cc1S(=O)(=O)NCc1ccco1,3,3

(further entries)
Compound,NPYLR7 ag,NPYLR7 ag max-min
O=S(=O)(c1cccc(Cl)c1Cl)N1CCN(c2nc3nccc(-c4cc(Cl)ccc4Cl)n3n2)CC1,5,-1
C=CCN(C(=O)c1cc(OC)cc(OC)c1)C(C)C(=O)c1c(C)c(C(=O)OCC)n(C)c1C (stereo unspecified),17,14
O=C(C=Cc1cc(Cl)cc(Cl)c1)NC1CCS(=O)(=O)C1 (stereo unspecified),5,-1
CC1CN(C2CCCCC2)c2nc3c(c(=O)n(Cc4ccccc4)c(=O)n3C)n2C1 (stereo unspecified),6,3
O=C(CNCC(F)(F)F)Nc1ccc(N2CCSCC2)cc1,2,0
CCCC(=O)N1CCC1(C)C(=O)Nc1ccc(OC)c(OC)c1 (stereo unspecified),3,-1
CNc1ncc(CN(C)C(=O)c2cccc(CC3CCNCC3)c2)cn1,-2,-7
CCS(=O)(=O)Oc1cccc(CN(C(=O)Nc2c(C(C)C)cccc2C(C)C)C(C)C)c1,-2,11
COc1cc(NC(=O)CCNC(=O)C23CC4CC(CC(C4)C2)C3)cc(OC)c1,11,3
COc1ccc(-n2nnc3c(N4CCN(C(=O)c5ccc(C(C)(C)C)cc5)CC4)ncnc32)cc1,3,-2
CC(=O)C(C)n1c(CN2CCC(C(N)=O)CC2)nc2c1c(=O)n(C)c(=O)n2C (stereo unspecified),1,9
COc1ccc(F)c(CN2CCCC(O)(CN3CCN(C(C)=O)CC3)C2=O)c1 (stereo unspecified),-1,-1
O=C1NC(Cc2ccccc2)(Cc2ccccc2)C(=O)N1CN1CCCCC1,-1,-2
CCC(=O)NCc1ccccc1-c1cccnc1OC,-1,-9
COc1ccc(CCOc2nc(-c3ccc(OC)cc3)n(-c3ccc(NC(=O)Nc4ccc(F)cc4F)cc3)n2)cc1,4,4
O=C(NC1CCC(NC(=O)[C@H]2CCCN2S(=O)(=O)c2ccc(Br)cc2)CC1)c1ccccc1 (stereo partly specified),4,13
CCN(CC1=CCN(CC(N)=O)CC1)C(=O)Cc1ccccc1,4,2
Cc1ccc(C)c(OCCN(C)Cc2cnc3ccccc3n2)c1,7,7
COc1ccccc1/C=C/C1=NC(=C\C(C)=C\c2ccccc2)/C(=O)O1,-2,-5
COc1cccc(N2CCN(S(=O)(=O)c3ccsc3C(=O)Nc3ccc4c(c3)CCC4)CC2)c1,-5,-6
CN(C)c1ccc(N)cc1CN(CC1CC1)C(=O)c1cccs1,-7,-9
CCOc1nnc(CN(C)CC(=O)Nc2c(Cl)cccc2Cl)s1,-8,-8
Cc1ccc(-n2ncc3c(C)nnc(SCC(=O)NCc4ccccc4)c32)cc1C,-12,-17
O=C(c1cnn2cc(CCO)cnc12)N1CCCC(Nc2cccc(F)c2)C1 (stereo unspecified),9,7
CCOc1ccc(C(=O)Nc2sc3c(c2C#N)CCC(C)C3)cc1 (stereo unspecified),-20&-1,-21&-4
Cc1ccc(Cl)cc1-n1c(SCc2nc(C(=O)NCCN3CCCCC3)cs2)nnc1-c1ccncc1,8,17
Cc1ccc(CN2CCN(Cc3cccc(OCC(N)=O)c3)CC2=O)cc1,-6,-11
COCCOc1ccc(NC(=O)N2CCCCC2CN(C)C)cc1Cl (stereo unspecified),6,4
N#Cc1cccc(-c2ccc3c(c2)N(CC2CC2)C(=O)COC3)c1,7,2
CCc1ccc(S(=O)(=O)N(C)Cc2cc(Cl)ccc2OC)cc1,3,2
CCC1C(=O)NCCN1C(=O)c1cccc(OC2CCN(S(=O)(=O)N(C)C)CC2)c1 (stereo unspecified),3,-1
CCNC(=S)N(Cc1c(-c2ccccc2)noc1N(CC)CC)CC1CCCO1 (stereo unspecified),3,7
COc1ccc(OCC(O)CN(Cc2ccc(F)cc2)Cc2cccs2)cc1 (stereo unspecified),32,37
Cc1cc(C)cc(NC(=O)C2CC(=O)N=C(N)S2)c1 (stereo unspecified),1,0
COc1ccc(CN2CCC2(C)C(=O)Nc2cccc(NS(C)(=O)=O)c2)c2ccccc12 (stereo unspecified),5,2
Cc1cc(NC(=O)CSc2nc(O)cc(=O)n2CC(C)C)no1,-1,-1
Cc1cc(CN2CCc3[nH]cnc3C2c2cccn2-c2nccs2)on1 (stereo unspecified),2,16
CC(Nc1ccc2c3c(cccc13)CC2)C(=O)NC1CC1 (stereo unspecified),-7,-12
Cc1cc(C)c(NC(=O)Cn2nc(C3CC3)c3cnn(-c4ccccc4)c3c2=O)c(C)c1,13,8
C/C(N)=C(/C#N)C(=O)COC(=O)c1ccc([N+](=O)[O-])c(C)c1,5,3
CCCNC(=O)C1(C)CCCN(CC(=O)c2ccccc2OC)C1 (stereo unspecified),6,1
CC1CCCCN1CC(=O)N1N=C(c2cccc(F)c2)CC1c1ccc2c(c1)OCO2 (stereo unspecified),2,2
c1ccc2c(c1)OCCC2NCc1ccc(N2CCOCC2)cc1 (stereo unspecified),2,-1
CN(Cc1ccc2nonc2c1)CC1CCN(CCc2ccc(Cl)cc2)CC1,7,3
CNc1nc(Nc2ccccc2)c2nccnc2n1,2,5
COCCN=c1scc(-c2ccc(Br)cc2)n1N=Cc1ccc(C#N)cc1,1,-2
CN(C)CCCNc1ncnc2c1c(-c1ccccc1)cn2-c1ccc(Br)cc1,-2,-1
Cc1cccnc1C1=NOC(Cc2ccccc2)C(=O)N1Cc1c(C)noc1C (stereo unspecified),8,6
Cc1ccc([N+](=O)[O-])cc1S(=O)(=O)N1CCN(CCO)CC1,12,6
CN(Cc1ccccc1N1CCCC1)C(=O)/C=C/c1ccncc1,1,59
O=C1C(=Cc2ccc(-c3ccc(Cl)cc3)o2)SC(=S)N1CCN1CCOCC1,26,18
CN(Cc1n[nH]c2c1CCC2)c1nc(-c2cccnc2)nc2c1cnn2C,1,-1
Cc1ccc(CN(CCc2ccccc2)C(=O)CN(CCN2CCCCC2)C(=O)c2cccc(Br)c2)o1,1,12
COC(=O)C(O)(CC(=O)O)C(F)(F)F (stereo unspecified),0,-3
COC(=O)c1cc(C(O)(C(F)(F)F)C(F)(F)F)c(N=CN(C)C)s1,0,-1
O=c1c(S(=O)(=O)c2ccc(Cl)cc2)c[nH]c2ccc(F)cc12,3,3

(continued)
Compound,NPYLR7 ag,NPYLR7 ag max-min
Cc1ccc2cc(C3=C/C(=C/c4cccs4)C(=O)O3)ccc2c1,-11,-17
Cc1ccccc1-n1nc(C)c(CNC(=O)c2cc(-c3cccc(Br)c3)nc3ccccc23)c1C,-3,-9
CC(C)c1nn(-c2ccc(F)cc2)c(C(C)C)c1C(=O)NCc1ccccn1,8,16
O=C(O)c1[nH]ncc1CN1CCN(c2nnc(C(F)(F)F)s2)CC1,-9,-11
CCOC(=O)c1ccc2nc(NC(=O)CSc3nnc(C)c(=O)[nH]3)sc2c1,-4,-6
Cc1ncsc1CCN(C)C(=O)c1ccc(Cl)s1,-1,-3
CCc1cc(C(=O)N2CCCC(C(=O)c3ccc(Cl)cc3)C2)no1 (stereo unspecified),3,-1
N#Cc1ccc(SCC(=O)N2CCCC2)cc1,8,5
CC(NC(C)c1nc2ccccc2c(=O)[nH]1)c1ccc2ccccc2c1 (stereo unspecified),3,1
O=C(c1cc2sccc2[nH]1)N1CCC2(CCCO2)CC1,0,-1
CCCCCC(=O)Nc1ccc(C(C)(C)C#N)cc1,1,2
Cc1cc(C)n(CCN(C(=O)c2ccc([N+](=O)[O-])s2)c2nc3ccccc3s2)n1,-17,-21

High-throughput results deposited in PubChem BioAssay by Fisher Drug Discovery Resource Center.
